RN4220 kill = growth inhibition of S. aureus RN4220, primary screen, OD600; AID 1259311, 2017; 16 h; 330,000 tested, 0.33% active; inhibition, % (test concentration not listed);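 active = z-score of -3 or lower and OD600 up to 0.18 on both plates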;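 also: plate controls were untreated cells for no effect and reference antibiotic for full effect; stock transfer was 100 nL into about 80 µL; one replicate is shown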
PrP 5UTR inh = inhibition of PrP 5' UTR reporter expression | cell-based PrP 5' UTR mRNA reporter, plate reader | inhibition, % (no concentration beside the values) | 340,000 tested, 0.35% active;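 active = every replicate at 50% or more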;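 also: 0 = median of the neutral control wells; tested in H4 reporter cells; numbers are from one replicate; inactives centre near -14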
Autofluor counter = flagged as autofluorescent in microsphere protease counterscreen; fluorescence intensity (test concentration not listed); 360,000 tested, 3.1% active; compound autofluorescence counterscreen, microsphere flow cytometry; hits give high values; AID 624483;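 active = at least 3 SD above the mean of all compounds, about 16000 in these data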;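 also: 100 nL of 1 mM stock went into each well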
ugtP null kill = growth inhibition of ugtP-null S. aureus, primary screen, RN4220 ugtP deletion, OD600. 16 h; some inactives read as strong as hits. growth inhibition, % (test concentration not listed). 330,000 tested, 0.54% active. AID 1259309, 2017;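 active = z-score under -3 and OD600 up to 0.15 on both plates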;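 also: plate controls were untreated wells for no effect and antibiotic for full effect; wells of about 80 µL received 100 nL stock; the first replicate is given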
Mtb hypoxia inh = PubChem AID 1159583. M. tuberculosis hypoxia-regulated fluorescent reporter, fluorescence. fluorescence inhibition, % (concentration not given with the values). 300,000 tested, 0.1% active;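 active = 35 to 45% if threefold the growth effect, above 45% if 1.5-fold the growth effect; inactive = the rest, general growth blockers included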;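 also: wells of about 50 µL received 100 nL stock; 0% = vehicle wells and 100% = reference inhibitor wells; whole bacteria with a GFP reporter of the hypoxia response; strong numbers were not always called active; many hits fall short of the cut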
BJeLR viability = MLPCN primary cell-based screen for lethality selective to Ras in HRASV12 cells; 300,000 tested, 0.17% active; inhibition, % (no concentration beside the values); BJeLR (HRASV12) viability, CellTiter-Glo ATP luminescence, 48 h; reference of the scale not given here;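 active = replicate mean above 50%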;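 also: 50 nL library stock added to about 25 µL; numbers are from one replicate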
Mtb hypoxia inh growth = recorded beside Mtb hypoxia inh, whose call it bears; growth inhibition, %; measured here: M. tuberculosis growth (absorbance);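 0% = vehicle and 100% = reference antibiotic; read after six days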
* marks the source's active call; other numbers are inactive results; . = not tested or not shown.

SMILES	RN4220 kill	PrP 5UTR inh	Autofluor counter	ugtP null kill	Mtb hypoxia inh	Mtb hypoxia inh growth	BJeLR viability
CC(C)Cn1c(N)c(C(=O)COC(=O)c2cc(C3CC3)nc3ccccc23)c(=O)n(C)c1=O	4.4	.	.	7.2	6.5	16.0	.
CCOc1cccc(-c2nnc(SCC(=O)NC3CC3)n2C)c1	3.5	-39.5	5477	6.5	9.6	-1.1	-5.6
Cc1ccc(SCCNS(=O)(=O)c2ccc3c(c2)OCCO3)cc1	3.7	-5.8	3422	16.8	-6.5	0.8	0.0
COc1cc2c(cc1NC(=O)COC(=O)/C=C/c1ccc([N+](=O)[O-])cc1)oc1ccccc12	0.5	-19.9	4761	-0.1	-1.7	-1.2	-2.6
COC(=O)c1ccc2c(c1O)C(=O)c1ccccc1C2=O	96.9*	-24.4	3821	97.1*	10.4	14.1	-3.0
C[C@H](NC(=O)N1C[C@H]2C[C@@H](C1)c1cccc(=O)n1C2)C(=O)Nc1cccc(F)c1	6.2	-17.2	5493	-5.4	.	.	-5.0
COCc1nnc(NS(=O)(=O)c2ccc(OC)cc2)s1	-1.2	61.7*	3428	1.6	5.1	-4.0	.
CCN(C[C@H]1N[C@@](C)(C(=O)OC)[C@H]2C(=O)N(Cc3ccccc3)C(=O)[C@@H]12)C(=O)Nc1ccc(C)cc1	2.7	-33.3	2830	1.0	-5.0	-1.3	.
O=C(Cc1csc(-c2ccccc2)n1)NCC(=O)Nc1ccc(F)c(F)c1F	-4.6	-10.8	3620	-5.5	3.9	0.6	.
COCCNC(=S)N1CCC(NC(=O)c2ccco2)CC1	5.8	-25.8	3837	3.0	9.5	8.9	-0.6
COC(=O)CSc1nc(C)c(Oc2ccccc2)c(=O)[nH]1	6.9	-10.4	4539	0.6	.	.	-2.5
CN(c1ccccc1)S(=O)(=O)c1cccc(C(=O)Nc2cccc(C(=O)NC3CC3)c2)c1	-1.2	-12.9	.	-0.6	5.1	4.4	.
COc1cc(S(=O)(=O)Nc2ccccc2C)ccc1NC(=O)c1ccncc1	.	-18.5	2337	.	.	.	-0.5
COc1ccc(Cn2c(=S)[nH]c3cc(C(=O)NCc4cccnc4)ccc3c2=O)cc1	6.4	-12.1	4077	1.1	7.7	1.1	3.7
COc1ccc2nc(NC(=O)CSCc3c(C)noc3C)sc2c1	0.3	-15.6	6368	13.1	2.7	2.9	-6.8
O=C(O)c1ccccc1/C=N/NC(=O)C1CCCC1	.	-9.8	4613	.	.	.	0.0
COCCCNc1nc2c(-c3ccc(C)cc3)nnn2c2ccccc12	-1.6	-17.4	3079	-7.7	12.6	0.6	13.1
Cc1ccc(NC(=O)CN(C)C(=O)c2ccc(Cl)nc2)cc1	-1.2	-12.6	4349	4.7	-4.9	-7.3	-2.3
O=c1ccc2cc(O)c(O)cc2o1	10.8	-26.8	5792	2.4	11.1	-1.1	-10.6
CSc1nsc(/C=C/Nc2ccc(C)cc2)c1C#N	-8.3	-43.4	3384	-10.9	7.0	9.9	0.5
CC1=C(C(=O)OC(C)C)C(c2cccs2)NC(=S)N1 (stereo unspecified)	4.3	-9.0	2061	-0.1	1.1	12.2	8.7
CNC(=S)N/N=C/c1c(C)c(C(=O)c2ccc(F)cc2)n2ccccc12	.	1.7	2904	.	.	.	0.5
O=C(O)c1cc(Nc2nc(N3CCOCC3)nc(N3CCOCC3)n2)ccc1Cl	-0.4	-16.4	5301	3.8	3.8	2.1	-8.5
CCOC(=O)C1=C(c2ccccc2)OC(N)=C(C#N)C1c1cccs1 (stereo unspecified)	7.4	-22.9	7856	11.8	2.0	1.4	.
CN(C)c1cccc(NC(=O)NC2(C)CCS(=O)(=O)C2)c1 (stereo unspecified)	5.9	-31.5	5571	-2.1	-3.4	-1.3	-8.2
Cc1cccc(C)c1NC(=O)CN(C)C(=O)C1CCCCC1	0.9	-12.9	6199	3.8	8.1	-0.3	.
COc1ccc(Cl)cc1NC(=S)NNC(=O)CC(C)C	-2.8	-22.7	4590	-1.8	15.0	10.7	-0.7
COCC(C)NC(=O)c1cccc(Cl)c1 (stereo unspecified)	4.2	-6.9	4163	3.5	8.9	7.6	-4.0
CCNC(=S)NNC(=O)Cc1ccccc1	-0.2	-3.0	2513	5.1	4.8	3.8	2.4
COc1ccc(Cl)cc1NC(=O)c1cc(S(=O)(=O)N2CCCC2)cn1C	21.2	2.1	4565	16.8	-0.7	4.7	-2.3
COCCCNC(=S)N1CCN(c2ccc([N+](=O)[O-])cc2)CC1	8.4	-15.8	2588	1.1	12.1	7.6	8.8
OCc1c[nH]c2ccccc12	0.3	-29.3	6061	-15.7	-4.3	0.3	.
COc1ccc(N2CC(C(=O)Nc3nc4ccc(OC)cc4s3)CC2=O)cc1 (stereo unspecified)	2.6	-11.7	4040	8.5	-7.8	-0.8	0.4
Cc1ccc(S(=O)(=O)N2CCCC2C(=O)OCc2ccco2)cc1 (stereo unspecified)	7.5	-20.2	7855	10.6	4.3	1.8	0.7
CCCCC(=O)N(Cc1ccc2c(c1)OCO2)Cc1nc2ccccc2c(=O)[nH]1	-0.4	-6.3	4053	-1.1	-3.5	-2.3	1.1
COC(=O)[C@H](Cc1ccccc1)NC(=O)Nc1ccc(C)cc1	2.8	-6.2	4142	10.5	3.0	-1.5	-0.2
Cc1c(O)nc2ccccn2c1=O	2.7	-22.8	5323	7.3	10.3	-3.6	-1.5
CC(C)(CNS(=O)(=O)c1ccc(Br)s1)N1CCOCC1	1.9	-3.1	8817	-0.9	-2.8	13.2	.
CCCc1[nH]nc2c1C(c1ccc(OC(=O)N3CCOCC3)cc1)C(C#N)=C(N)O2 (stereo unspecified)	5.0	12.2	9715	5.0	-2.9	-6.3	0.6
O=C(N/C=C/c1ccco1)OCc1ccccc1	.	-59.2	4645	.	.	.	1.8

Compound activity (PubChem BioAssay)
